Screening results (PubChem)
Rango complex inh: prevents formation of the Rango-importin beta complex; Q14974; Rango CFP/YFP FRET sensor + importin beta, 45 min; Potency, µM (titrated, usually from 92.2 µM), without a hit: at the highest dose inhibition of complex formation; hit rate 0.031% among 340,000; AID 540263; active = rising FRET ratio curve, often small or poorly fitted; inconclusive = mostly compound fluorescence or quenching in the first reads; inactive = flat curves in all reads;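 also: potency is read from the fitted curve at half-maximal effect; 0% = DMSO wells and 100% = buffer wells lacking importin beta; nearly all actives have a fitted effect of over 15% in size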
Target sequence (Q14974 whole entry, looked up): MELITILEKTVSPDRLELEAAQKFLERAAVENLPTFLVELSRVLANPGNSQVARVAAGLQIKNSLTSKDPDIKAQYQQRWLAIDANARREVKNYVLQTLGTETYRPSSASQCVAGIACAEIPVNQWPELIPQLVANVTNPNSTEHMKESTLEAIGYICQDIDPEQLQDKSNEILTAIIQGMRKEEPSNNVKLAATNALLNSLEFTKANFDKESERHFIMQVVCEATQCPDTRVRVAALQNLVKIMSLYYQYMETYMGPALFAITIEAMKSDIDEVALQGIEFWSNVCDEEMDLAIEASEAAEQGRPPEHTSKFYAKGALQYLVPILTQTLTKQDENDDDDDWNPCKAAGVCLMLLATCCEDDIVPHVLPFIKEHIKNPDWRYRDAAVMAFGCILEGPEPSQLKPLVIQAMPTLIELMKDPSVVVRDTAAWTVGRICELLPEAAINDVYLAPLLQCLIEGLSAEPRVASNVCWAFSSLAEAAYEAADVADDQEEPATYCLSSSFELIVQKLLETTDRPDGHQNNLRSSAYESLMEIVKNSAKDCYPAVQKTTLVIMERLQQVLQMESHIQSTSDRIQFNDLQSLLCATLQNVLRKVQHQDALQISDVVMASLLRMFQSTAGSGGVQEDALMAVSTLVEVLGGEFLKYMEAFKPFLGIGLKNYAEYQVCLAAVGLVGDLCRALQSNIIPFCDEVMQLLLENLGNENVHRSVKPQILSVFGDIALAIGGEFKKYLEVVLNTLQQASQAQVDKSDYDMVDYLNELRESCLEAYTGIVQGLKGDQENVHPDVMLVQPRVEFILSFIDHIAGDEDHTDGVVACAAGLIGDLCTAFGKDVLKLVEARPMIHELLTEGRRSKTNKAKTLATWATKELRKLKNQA
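Inhibition scored from the CFP 486 nm/YFP 530 nm FRET ratio 45 min after adding 0.125 microM importin beta to 50 nM Rango biosensor preincubated 5 min with compound (room temperature, PBS with DTT, Tween-20, BSA). No-importin wells as positive control.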
miR-21 FLuc: miR-21 reporter, rising signal; HeLa miR-21 FLuc reporter, luciferase, 48 h; Potency, µM (titrated, usually from 38.3 µM), for the others: top-dose reporter change, positive = more light; 340,000 tested, under 10 active; AID 2288; active = well fitted rising curve with a large enough effect; inconclusive = small, poorly fitted or top-dose-only effect; inactive = no such curve, though single readings can be large or run the other way;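 also: % of control where 0% means no effect; miR-21 action dims this reporter so a rising signal means less miR-21 action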
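HeLa cells stably expressing CMV-driven firefly luciferase with a downstream miR-21 binding sequence, endogenously expressing miR-21, were treated with titrations (up to about 40uM final) for 48 hours at 37 degree Celsius. Luciferase luminescence was read after lysis.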
Rango dissoc inh: prevents RanGTP from dissociating the Rango-importin beta complex | Potency, µM (highest dose often 46.1 µM), without a hit: top-dose activity change, negative = inhibition | Biochemical FRET Rango-importin beta, RanGTP-induced dissociation | hit rate 0.071% among 340,000; active means falling FRET ratio curve, often poorly fitted, with flat reads before Ran was added; inconclusive means other falling curves, or compound fluorescence or quenching; inactive means flat or rising ratio curve;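 also: potency is read from the fitted curve at half-maximal effect; % of control where 0% means no effect; nearly all actives have a fitted effect of over 45% in size; -100% = wells without RanGTP and RCC1; the record marks most hits as doubtful in a second field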
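Rango/importin beta premix (0.1/0.25 uM final), PBS + 1 mM DTT + 0.02% Tween-20 + 0.1% BSA; cpd 5 min RT; FRET pre-read; + RanGTP-RCC1 (0.6 uM Ran, 2 mM GTP, 0.2 uM RCC1); 45 min RT; FRET post-read, ex 430, em 486/530 nm.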
GLA inh pH 4.5: blocks human alpha-galactosidase A at pH 4.5; activity change, negative = inhibition, % at 105 µM; 230,000 tested, under 10 active; purified enzyme, 4-MU-alpha-Gal fluorescence, pH 4.5; inconclusive = small, poorly fitted or top-dose-only inhibition, or a rising curve; inactive = flat fitted curve, though single readings scatter; no compound was filed as active;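 also: 0% = full activity with enzyme and -100% = basal without enzyme; dose as in the result columns while the protocol names 77 µM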
Numbers without * were called inactive; ? = inconclusive; / = no result given; [ ] = another dose, or the depositor's remark. Not all compounds are listed; count on the stated rates, not on these rows.

Sequence of screens: Rango complex inh, miR-21 FLuc, GLA inh pH 4.5, Rango dissoc inh
- CS(=O)(=O)N(CCc1ccccc1)CC(=O)N1CCN(Cc2ccccc2)CC1
→ -1.1%, -3%, -1, -6%
- Cc1ccc2nc(N3C(=O)C(O)=C(C(=O)c4ccco4)C3c3cccs3)sc2c1 (stereo not given)
→ ?, -67%, -19, ?
- Cn1cc(/C=N/n2cnc3scc(-c4ccccc4)c3c2=O)c2ccccc21
→ -1.9%, 21%, -11, -7%
- O=C(CSc1nnc(CNC(=O)c2cccc(C(F)(F)F)c2)o1)NC1CCCCC1
→ -2.6%, 0%, /, -10%
- Cn1cccc1C(=O)NC(=O)COC(=O)c1cc([N+](=O)[O-])ccc1Cl
→ ?, 0%, -5, 4%
- CCC(C)(C(=O)NC1CCCC1)N(CC1CCCO1)C(=O)c1ccc2c(c1)OCO2 (stereo not given)
→ -3.3%, -1%, 8, -9%
- CC(=O)Nn1c(-c2ccccc2)cc2ccccc21
→ -1.3%, -5%, 1, 27%
- CC(=O)c1ccccc1-c1csc2ncnc(Sc3nnnn3C)c12
→ 4.0%, /, /, 8%
- O=C(CSc1ccc(-c2ccccn2)nn1)Nc1ccccc1
→ 0.1%, 1%, /, -6%
- Cc1cc(C(F)(F)F)n2nc(-c3cnn(C)c3C(F)(F)F)c(Br)c2n1
→ -0.8%, -15%, ?, 9%
- O=c1c2ccccc2oc2nc(-c3cccs3)n(CCc3ccccc3)c(=O)c12
→ /, -5%, 0, /
- CN(CC(=O)Nc1ccc(Cl)cc1)CC(=O)Nc1cc(Cl)ccc1C#N
→ -3.1%, 1%, -10, 3%
- C=CCn1c(N)cc(=O)nc1SCC(=O)Nc1ccc(C)cc1
→ -0.2%, 0%, 3, -3%
- S=c1[nH]nc(C2CCCCC2)n1/N=C/c1ccccn1
→ -0.8%, -1%, 4, 0%
- C=CCOc1ccc(C2=NOC(C(=O)Nc3ccc4c(c3)OCCO4)C2)cc1 (stereo not given)
→ -2.6%, -2%, /, 6%
- COc1ccc(-n2c(Cn3c(=O)sc4ccccc43)nnc2SC)cc1
→ -2.7%, -1%, 1, 34%
- C#CCNC(=O)C1=C[C@H](C)[C@@H](CCCO)[C@H](OCC)O1
→ -0.3%, 1%, 3, 3%
- COc1cccc(N2CN(CCc3ccccc3)CNC2=S)c1
→ 0.3%, -1%, -1, 8%
- CN(c1ccccc1)c1nc(-n2ccnc2)nc(-n2ccnc2)n1
→ 3.4%, -14%, 0, -1%
- CCC(C)Sc1ccc([C@H]2N[C@@](C)(C(=O)OC)[C@H]3C(=O)N(C)C(=O)[C@@H]23)cc1OC (stereo not given in full)
→ 0.6%, /, /, 8%
- C/C(=N/NC(=O)CN(c1ccccc1)S(=O)(=O)c1ccccc1)c1ccccc1O
→ ?, 27%, /, -25%
- COc1ccc(-n2c(C)cc(/C=C3\SC(=O)NC3=O)c2C)cc1
→ -1.3%, -74%, /, -8%
- O=C(CNC(=O)c1ccccc1F)NCc1ccccn1
→ -2.7%, /, /, 5%
- C=CCN1C(=O)c2ccc(C(=O)N(CC(C)C)c3c(N)n(CCCC)c(=O)[nH]c3=O)cc2C1=O
→ 6.9%, /, /, 7%
- CC(C)C(NC(=O)c1ccc(C(C)(C)C)cc1)C(=O)NCC1(N(C)C)CCCCC1 (stereo not given)
→ 3.6%, -1%, /, -11%
- CC1(C)CC(=O)C2=C(C1)OC1=C(C(=O)CC(C)(C)C1)C2(C)C
→ /, -10%, -4, /
- COCCn1c(SCC(=O)Nc2ccc3c(c2)OCCO3)nnc1-c1ccncc1
→ -0.9%, /, /, -3%
- Cc1cc(C)c(S(=O)(=O)N2CCCCC2)cc1N(C)S(=O)(=O)c1ccc(Cl)cc1
→ -1.0%, 18%, -3, 21%
- Cc1ccc(CCNc2ncnc(Cl)c2N)cc1
→ -2.3%, /, /, -8%
- CC(=O)/C=C1\SC(CC(=O)O)C(=O)N1c1ccccc1 (stereo not given)
→ ?, -1%, -4, -3%

Fetched by compound from the entries so far:
Sequence of screens: Rango complex inh, miR-21 FLuc, GLA inh pH 4.5, Rango dissoc inh
- CC1(C)CC(=O)C2=C(C1)OC1=C(C(=O)CC(C)(C)C1)C2(C)C
→ /, -10%, -4, /
- C=CCOc1ccc(C2=NOC(C(=O)Nc3ccc4c(c3)OCCO4)C2)cc1 (stereo not given)
→ -2.6%, -2%, /, 6%
- CCC(C)Sc1ccc([C@H]2N[C@@](C)(C(=O)OC)[C@H]3C(=O)N(C)C(=O)[C@@H]23)cc1OC (stereo not given in full)
→ 0.6%, /, /, 8%

Additional structures follow:
Sequence of screens: Rango complex inh, miR-21 FLuc, GLA inh pH 4.5, Rango dissoc inh
- CC(=O)C(Sc1nc(N(C)C)nc(N(C)C)n1)C(=O)Nc1ccccc1 (stereo not given)
→ 0.6%, -4%, 2, 14%
- Cn1c(=O)[nH]c(=O)c2c1nc(Br)n2CC(O)c1ccccc1 (stereo not given)
→ 3.0%, 8%, -3, 0%
- CCCC(=O)Nc1cc(S(=O)(=O)N(CC)CC)ccc1Cl
→ -1.4%, 0%, -4, 2%
- O=C(/C=C/NNC(=O)c1ccccc1O)c1ccccc1
→ 3.0%, -9%, /, -17%
- CC(C)=C1C2CCC1C(C(=O)Nc1cc(C)cc(C)c1)C2C(=O)O (stereo not given)
→ -1.1%, 3%, 2, 13%
- C=CCNC(=O)c1ccc2c(=O)n(CCCN3CCCC3=O)c(=S)[nH]c2c1
→ 0.9%, 2%, 5, 10%
- COC(=O)c1c(NC(=O)c2cccnc2Cl)sc(C(=O)N(C)C)c1C
→ -0.2%, -16%, 0, 2%
- COc1ccc(-c2nnc(SCC(=O)Nc3ccc(C(=O)O)cc3)n2-c2ccc(Cl)cc2)cc1
→ -1.6%, 3%, /, -2%
- COc1cc(C2C(C(=O)OC(C)C)=C(C)Nc3ncnn32)cc(OC)c1OC (stereo not given)
→ 0.1%, -7%, ?, 15%
- O=C(COc1coc(CN2CCN(c3ccccc3)CC2)cc1=O)NCC1CCCO1 (stereo not given)
→ -1.6%, /, /, 22%
- CN(C)CCOC(C1CCCCC1)C1CCCCC1
→ 0.5%, 4%, -3, -9%
- COc1ccc(-c2csc(NC(=O)CC(NC(C)=O)c3ccccc3)n2)cc1OC (stereo not given)
→ 0.3%, 0%, /, -3%
- C#CCOCCOCCOCCNc1nc(N2CCN(C(=O)C([C@@H](C)CC)n3cc(C(N)COC(=O)C(F)(F)F)nn3)CC2)nc(N2CCN(C(=O)[C@H](CCCCN)n3cc(C(N)CC(C)C)nn3)CC2)n1 (stereo not given in full)
→ 5.9%, /, /, 4%
- CCN1C(=O)[C@H]2[C@@H](c3ccc(C)cc3)N3C(=O)N(c4cccc(F)c4)C(=O)[C@@]3(C)[C@H]2C1=O
→ 0.9%, -1%, /, -3%
- O=C(O)c1cccnc1Nc1ccc(Cl)cc1
→ -1.1%, -1%, -6, -9%
- Cc1ccccc1OCC(=O)N1N=C(c2cccnc2)CC1(O)C(F)(F)F (stereo not given)
→ 2.4%, -13%, 6, 44%
- c1ccc(CSc2nnc3ccc(-c4cccs4)nn23)nc1
→ -0.7%, -66%, -1, -4%
- CCN1CCN(c2ccc(NC(=O)CCc3c(C)nc4c(-c5ccc(F)cc5)c(C)nn4c3C)cc2)CC1
→ -0.8%, 2%, -10[21.1 µM], -1%
- Cc1cccc(OCCC(=O)Nc2ccc(F)c(Cl)c2)c1
→ -4.0%, -7%, -15, 6%
- CC(=O)N1CCN(S(=O)(=O)c2cccc(C(=O)Nc3cc(C(F)(F)F)ccc3N3CCOCC3)c2)CC1
→ 0.1%, -5%, /, 4%
- CCN(CC)C(=O)[C@H]1C[C@H](CC(=O)NCCN2CCOCC2)C(=O)N2CCc3c([nH]c4cc(-c5ccco5)ccc34)[C@]12C
→ -5.2%, /, /, -4%
- CCOc1ccc2oc(C(=O)Nc3cc(C)ccn3)c(C)c2c1
→ -1.7%, /, /, -12%
- Cc1cccc(CCNC(=O)c2cccc3c2C(=O)N(C2CCCCC2)C3)c1
→ 0.6%, 8%, /, 11%
- CSc1ccccc1-c1nc(-c2ccncc2)no1
→ 1.5%, -70%, /, -3%
- Cc1cc2ccccc2n2c(SCC(=O)N3CCOCC3)nnc12
→ 4.9%, -4%, 4, 0%
- O=C(COC(=O)c1ccccc1NCCO)NCC1CCCCC1
→ -2.1%, /, /, -2%
- CN1CCc2c1nc1ccccc1c2N (tested in a mixture with another compound)
→ 2.9%, 0%, /, 15%
- C=CCn1c(SCc2csc(C)n2)nc2scc(-c3ccc(C)o3)c2c1=O
→ -0.2%, -4%, -1, -17%
- CCCc1nnc(SCC(=O)N2CCCC(C)C2)n1CC1CCCO1 (stereo not given)
→ 0.6%, -3%, 1, 1%
- O=C(CSc1nnc(NC2CC2)s1)c1ccc[nH]1
→ 2.1%, /, /, -4%

One compound at a time, from the list above. Screens in order: Rango complex inh, miR-21 FLuc, GLA inh pH 4.5, Rango dissoc inh
`O=C(O)c1cccnc1Nc1ccc(Cl)cc1` is entered as -1.1%, -1%, -6, -9%
`C=CCn1c(SCc2csc(C)n2)nc2scc(-c3ccc(C)o3)c2c1=O` is entered as -0.2%, -4%, -1, -17%

(list continues)
Sequence of screens: Rango complex inh, miR-21 FLuc, GLA inh pH 4.5, Rango dissoc inh
- COC(=O)c1cc(OC)c(OC)cc1NC(=O)CCc1ccc(C)o1
→ -2.6%, -2%, -6, 0%
- Cc1cccc(-n2c(SCCC(=O)O)nnc2-c2cccs2)c1C
→ 2.6%, -3%, 10, 36%
- O=C(O)C1CSC(c2coc3ccccc3c2=O)N1 (stereo not given)
→ ?, -18%, -16, ?
- C=CCOc1ccc(C2/C(=C(\O)c3c(C)[nH]c(C(=O)OC)c3C)C(=O)C(=O)N2CCN(C)C)cc1 (stereo not given)
→ -0.1%, -1%, -5, 2%
- Cc1ccc(C)c(NC(=O)c2cnc3n(c2=O)CCS3)c1
→ -0.2%, -24%, -3, 0%
- CCOC(=O)N1CCN(C(=O)c2ccc(-n3c(C)ccc3C)cc2)CC1
→ -1.6%, -4%, -23, -5%
- C=CCN(Cc1nc(-c2ccccc2)no1)C(=O)c1ccoc1C
→ 3.3%, 2%, /, -5%
- CN1C(=O)c2ccc(N(C)C)cc2C1=O
→ ?, -7%, -19, ?
- CCN(CC)C(=O)CN1CCC(n2c(C)nc3cc(C(F)(F)F)ccc32)CC1
→ -7.8%, -14%, -8, -8%
- O=C(CCCn1c(=S)[nH]c2ccsc2c1=O)NCCc1ccccc1
→ 0.0%, -13%, /, 16%
- Cc1ccc(NC(=O)CN2C(=O)NC3(CCCC3)C2=O)cc1S(=O)(=O)N1CCCCC1
→ 0.3%, /, /, -9%
- CC(=O)Nc1cccc(C(=O)OCC(=O)Nc2nnc(-c3ccccc3)o2)c1
→ ?, /, /, 3%
- CC(=O)c1sc(NC(=O)C2CSC3(C)CCC(=O)N23)nc1-c1ccccc1 (stereo not given)
→ 1.3%, /, /, -8%
- Cc1ccc(/C=N/Nc2cccc(C(=O)O)c2)s1
→ ?, -67%, 1, -8%
- COc1ccc(C2(O)CCN(CC(=O)Nc3nc(-c4ccccc4)cs3)CC2)cc1
→ -6.7%, ?, -1, 7%
- O=C(c1cc(Cl)c(=O)n(Cc2ccccc2)c1)N1CCOCC1
→ -0.4%, -2%, 4, -11%
- c1csc(CCNc2ncnc3sc4c(c23)CCC4)c1
→ -4.2%, 18%, 0, 13%
- CSCC[C@H](NC(=O)c1nn(C)c(=O)c2ccccc12)c1nc2ccccc2[nH]1
→ -0.3%, -30%, 9, 1%
- Cc1ncc(CN2CCC(CO)(CCc3ccccc3)CC2)s1
→ -4.7%, -2%, -3, -11%
- CCC1C(=O)N=C(SCC(=O)Nc2ccc(C)cc2)N(c2ccccc2)C1=O (stereo not given)
→ 7.4%, 1%, /, 10%
- Cc1cccc(NS(=O)(=O)c2cccc(C(=O)NCC(c3ccc(F)cc3)N3CCOCC3)c2)c1 (stereo not given)
→ -6.5%, /, /, 1%
- COC(=O)c1sccc1-c1ccc(/C=N/OCc2c(Cl)cccc2Cl)o1
→ 1.2%, 0%, 2, -4%
- O=C(C(c1ccccc1)c1ccccc1)N1CCN(CCN2C(=O)c3cccc4cccc(c34)C2=O)CC1
→ 1.0%, -4%, -15, 1%
